Source: PubChem BioAssay
Rango complex inh = prevents formation of the Rango-importin beta complex; Q14974; Rango CFP/YFP FRET sensor + importin beta, 45 min; Potency, µM (series often up to 92.2 µM), for the others: at the highest dose inhibition of complex formation; 340,000 tested, 0.031% active; active = rising FRET ratio curve, often small or poorly fitted; inconclusive = mostly compound fluorescence or quenching in the first reads; inactive = flat curves in all reads;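 note: potency is the fitted concentration of half-maximal effect; 0% = DMSO wells and 100% = buffer wells lacking importin beta; nearly all actives have a fitted effect of over 15% in size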
Target sequence (Q14974 whole entry, looked up): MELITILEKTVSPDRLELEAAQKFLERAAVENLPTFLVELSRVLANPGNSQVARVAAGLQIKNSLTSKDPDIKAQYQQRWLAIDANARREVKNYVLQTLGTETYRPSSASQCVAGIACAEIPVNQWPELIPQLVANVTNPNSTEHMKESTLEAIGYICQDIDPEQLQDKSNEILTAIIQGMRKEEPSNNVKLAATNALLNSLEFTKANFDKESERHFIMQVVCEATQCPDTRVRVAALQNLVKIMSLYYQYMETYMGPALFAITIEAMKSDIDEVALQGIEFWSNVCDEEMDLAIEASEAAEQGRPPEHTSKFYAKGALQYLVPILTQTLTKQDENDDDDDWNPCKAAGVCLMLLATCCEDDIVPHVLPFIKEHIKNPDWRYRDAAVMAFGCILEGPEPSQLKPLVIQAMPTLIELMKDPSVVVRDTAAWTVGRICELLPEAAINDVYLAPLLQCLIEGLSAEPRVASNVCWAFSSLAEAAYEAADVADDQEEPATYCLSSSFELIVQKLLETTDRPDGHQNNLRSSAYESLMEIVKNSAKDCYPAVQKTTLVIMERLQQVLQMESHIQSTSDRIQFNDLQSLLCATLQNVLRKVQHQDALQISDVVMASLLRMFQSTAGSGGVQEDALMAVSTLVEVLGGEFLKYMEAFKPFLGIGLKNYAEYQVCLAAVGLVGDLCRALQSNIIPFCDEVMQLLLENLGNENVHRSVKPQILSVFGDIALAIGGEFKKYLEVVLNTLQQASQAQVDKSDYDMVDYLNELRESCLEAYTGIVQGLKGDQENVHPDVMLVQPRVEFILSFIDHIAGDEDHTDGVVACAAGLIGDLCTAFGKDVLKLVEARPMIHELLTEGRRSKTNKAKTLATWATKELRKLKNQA
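Inhibition scored from the CFP 486 nm/YFP 530 nm FRET ratio 45 min after adding 0.125 microM importin beta to 50 nM Rango biosensor preincubated 5 min with compound (room temperature, PBS with DTT, Tween-20, BSA). No-importin wells as positive control.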
miR-21 FLuc = raises the signal of a miR-21 reporter; HeLa miR-21 FLuc reporter, luciferase, 48 h; 340,000 tested, under 10 active; AID 2288; Potency, µM (doses to about 38.3 µM), without a hit: top-dose reporter change, positive = more light; active = well fitted rising curve with a large enough effect; inconclusive = small, poorly fitted or top-dose-only effect; inactive = no such curve, though single readings can be large or run the other way;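 note: % of control where 0% means no effect; miR-21 action dims this reporter so a rising signal means less miR-21 action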
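Using DMEM plus 10% FBS, HeLa miR-21-FLuc cells are incubated with test compounds (final up to about 40uM) for 48 hours; firefly luciferase signal is then imaged following reagent-mediated lysis.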
Rango dissoc inh = prevents RanGTP from dissociating the Rango-importin beta complex; 340,000 tested, 0.071% active; Biochemical FRET Rango-importin beta, RanGTP-induced dissociation; AID 540253; Potency, µM (highest dose often 46.1 µM), for the others: top-dose activity change, negative = inhibition; active means falling FRET ratio curve, often poorly fitted, with flat reads before Ran was added; inconclusive means other falling curves, or compound fluorescence or quenching; inactive means flat or rising ratio curve;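 note: potency is the fitted concentration of half-maximal effect; % of control where 0% means no effect; nearly all actives have a fitted effect of over 45% in size; -100% = wells without RanGTP and RCC1; the record marks most hits as doubtful in a second field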
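Compounds preincubate 5 min with complex of recombinant Rango and importin beta in PBS with 1 mM DTT. Ran (0.6 uM) loaded with 2 mM GTP plus 0.2 uM RCC1 starts dissociation; FRET is recorded 45 min later.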
GLA inh pH 4.5 = blocks human alpha-galactosidase A at pH 4.5 | P06280 | purified enzyme, 4-MU-alpha-Gal fluorescence, pH 4.5 | activity change, negative = inhibition, % at 105 µM | 230,000 tested, under 10 active | AID 1467; inconclusive = small, poorly fitted or top-dose-only inhibition, or a rising curve; inactive = flat fitted curve, though single readings scatter; no compound was filed as active;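 note: 0% = full activity with enzyme and -100% = basal without enzyme; dose as in the result columns while the protocol names 77 µM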
Starred values were filed as active, the others as inactive; & = joins results of further samples.

Screening C1CSC2(N1)C1CC3CC2CC(C1)C31NCCS1 (stereo not drawn) returned Rango complex inh -0.5%, miR-21 FLuc 2%, Rango dissoc inh 5% and GLA inh pH 4.5 9.
Screening Cc1cccc(N(C)C(=O)CCS(=O)(=O)c2cccc3nonc23)c1 returned Rango complex inh -6.0%, miR-21 FLuc 0%, Rango dissoc inh -6% and GLA inh pH 4.5 -1.
For COc1ccc(CNC(=O)C(=O)NCC2OCCN2S(=O)(=O)c2ccc(OC)c(OC)c2)cc1 (stereo not drawn) the results were Rango complex inh 3.5%, miR-21 FLuc 0% and Rango dissoc inh 11%.
COc1cc(C(=O)N/N=C/c2cc([N+](=O)[O-])cs2)cc(OC)c1OC was read as Rango complex inh 0.7%, miR-21 FLuc 4%, Rango dissoc inh 5% and GLA inh pH 4.5 -1.
Screening COc1ccc(NC(=O)CON=CC(=O)Nc2ccc(C)cc2)c(OC)c1 returned Rango complex inh -0.7% and Rango dissoc inh 20%.
`COc1ccc(CCCC(=O)NCc2ccccc2)cc1C` gave Rango complex inh -1.1%, miR-21 FLuc 22%, Rango dissoc inh 2% and GLA inh pH 4.5 -8.
Cc1nn(-c2ccccc2)c(N2CCCC2)c1/C=N/NC(=O)c1cc(-c2cccnc2)nc2ccccc12 was read as Rango complex inh 1.6%, miR-21 FLuc inconclusive, Rango dissoc inh 4% and GLA inh pH 4.5 0.
COC(=O)c1ccc(C(NC(=O)OCc2ccccc2)/C(C)=C/[C@@H](C)C(=O)NCc2ccc(OC)c(OC)c2)cc1 (stereo partly drawn) was read as Rango complex inh -3.4%, miR-21 FLuc -1%, Rango dissoc inh 0% and GLA inh pH 4.5 -4.
For NC(=O)c1ccc(NC(=O)Cc2csc(-c3ccccc3)n2)cc1 the results were Rango complex inh -2.7%, miR-21 FLuc -5%, Rango dissoc inh -6% and GLA inh pH 4.5 9.
COc1ccccc1N1C(=O)C2C(C(=O)c3ccccc3)=NN(c3ccc(C)cc3)C2C1=O (stereo not drawn) was read as Rango complex inh inconclusive, miR-21 FLuc -4%, Rango dissoc inh inconclusive and GLA inh pH 4.5 1.
`CCOc1cc(N2CCOCC2)c(OCC)cc1NC(=O)COC(=O)c1cc2ccccc2cc1O` gave Rango complex inh -3.3%, miR-21 FLuc 1%, Rango dissoc inh 5% and GLA inh pH 4.5 1.
`CSc1ccc(/C=C(\NC(=O)c2ccccc2)C(=O)NCCN2CCOCC2)cc1` gave Rango complex inh -0.3%, miR-21 FLuc -1% and Rango dissoc inh inconclusive.
CC1Cc2ccccc2N1C(=O)COC(=O)c1cccc(Br)c1 (stereo not drawn) was read as Rango complex inh 1.5% and Rango dissoc inh 1%.
Screening COc1cc(C2=NOC(C(=O)NCc3ccccn3)C2)cc(OC)c1OC (stereo not drawn) returned Rango complex inh 0.0%, miR-21 FLuc -3%, Rango dissoc inh inconclusive and GLA inh pH 4.5 7.
`O=C(c1cnsn1)N1CCC(CO)(Cc2cccc(F)c2)CC1` gave Rango complex inh 0.7%, miR-21 FLuc -81%, Rango dissoc inh 20% and GLA inh pH 4.5 -17.
Cc1sc2c(c1C)c(=O)n(-c1ccc(Cl)cc1)c(=O)n2Cc1cc(=O)n2ccccc2n1 was read as Rango complex inh 0.5%, miR-21 FLuc -2%&-10%, Rango dissoc inh -1% and GLA inh pH 4.5 1.
Screening COc1ccc(OCC(=O)Nc2c(C(=O)N3CCC(N4CCCCC4)CC3)oc3ccccc23)cc1 returned Rango complex inh -3.2%, miR-21 FLuc -1% and Rango dissoc inh -5%.
C=CCn1c(CNC(=O)c2ccccc2F)nnc1SCc1nc2ccccc2c(=O)[nH]1 was read as Rango complex inh 2.6%, miR-21 FLuc -1%, Rango dissoc inh 5% and GLA inh pH 4.5 -14.
Screening O=C(Nc1ccc2c(c1)CCC2)c1ccccc1F returned Rango complex inh 0.3%, miR-21 FLuc -41%, Rango dissoc inh -3% and GLA inh pH 4.5 -5.
For COc1ccc(-c2cc(C)no2)cc1S(=O)(=O)N1CCN(c2ccccn2)CC1 the results were Rango complex inh 0.5%, miR-21 FLuc -7% and Rango dissoc inh 8%.
Screening Fc1ccccc1C(c1nnnn1Cc1ccc2c(c1)OCO2)N1CCN(Cc2ccco2)CC1 (stereo not drawn) returned Rango complex inh 4.1%, miR-21 FLuc -11%, Rango dissoc inh -7% and GLA inh pH 4.5 1.
Cc1c(Nc2nc(-c3cccc([N+](=O)[O-])c3)cs2)c(=O)n(-c2ccccc2)n1C was read as Rango complex inh 0.2%, miR-21 FLuc -3%, Rango dissoc inh 0% and GLA inh pH 4.5 0.
Screening CC1CN=C2C(C(=O)Nc3ccccc3)=C(O)CC(c3ccccc3)N21 (stereo not drawn) returned Rango complex inh -3.9%, miR-21 FLuc 0%, Rango dissoc inh 1% and GLA inh pH 4.5 -14.
For O=c1cc(-c2ccccc2)c2ccc(O)cc2o1 the results were Rango complex inh -1.2% and Rango dissoc inh inconclusive.
For COc1ccc(-c2cc(C)no2)cc1S(=O)(=O)NCc1cccc(C)c1 the results were Rango complex inh 2.5%, miR-21 FLuc 17% and Rango dissoc inh 12%.
CCc1ccc(-c2cc(C(=O)Nn3cnnc3)c3ccccc3n2)cc1 was read as Rango complex inh 8.8%, miR-21 FLuc inconclusive, Rango dissoc inh 0% and GLA inh pH 4.5 -6.
Screening COc1ccc(N(CC(=O)N2CCc3ccccc32)S(=O)(=O)c2c(C)n[nH]c2C)cc1 returned Rango complex inh 16%, miR-21 FLuc -5%, Rango dissoc inh -5% and GLA inh pH 4.5 -2.
`COC(=O)c1cc2c(ccn2-c2ccc(F)cc2)n1CC(=O)OC(C)C` gave Rango complex inh 0.1%, miR-21 FLuc 5%, Rango dissoc inh 14% and GLA inh pH 4.5 -7.
CC(C)NC(=O)Nc1ccc2c(c1)C(=O)N([C@H](C)CO)C[C@H](C)[C@@H](CN(C)S(=O)(=O)c1cn(C)cn1)O2 was read as Rango complex inh 6.6% and Rango dissoc inh -2%.
COc1cccc(-c2cc(C(=O)N3CCCCC3C)no2)c1 (stereo not drawn) was read as Rango complex inh 0.1%, miR-21 FLuc -59%, Rango dissoc inh -8% and GLA inh pH 4.5 1.
Cc1[nH]c(=O)[nH]c(=O)c1S(=O)(=O)NCC12CC3CC(CC(C3)C1)C2 was read as Rango complex inh 6.3%, miR-21 FLuc -3%, Rango dissoc inh -3% and GLA inh pH 4.5 -7.
`CCOc1cc(C(C(=O)NCC2CCCO2)N(C(=O)Cn2nnc3ccccc32)c2cccc(OC)c2)ccc1O` (stereo not drawn) gave Rango complex inh -1.2%, miR-21 FLuc 0% and Rango dissoc inh 1%.
`COc1ccc(Nc2nc(C)nc3c2oc2ccccc23)cc1` gave Rango complex inh -0.4%, miR-21 FLuc -3% and Rango dissoc inh 1%.
Cc1nc(-c2cc(-c3nc(-c4ccc(C(F)(F)F)cc4)no3)no2)cs1 was read as Rango complex inh 4.3%, miR-21 FLuc -2%, Rango dissoc inh 2% and GLA inh pH 4.5 -4.
`COc1cccc(CNCc2ccc(SC)cc2)c1OC` gave Rango complex inh inconclusive, miR-21 FLuc 0%, Rango dissoc inh 2% and GLA inh pH 4.5 4.
`NS(=O)(=O)c1ccc(NC(=S)NC(=O)c2ccc(-c3ccccc3)cc2)cc1` gave Rango complex inh -0.1%, miR-21 FLuc -15%, Rango dissoc inh -7% and GLA inh pH 4.5 3.
Screening COc1cccc2cc(C(=O)C3=C(O)C(=O)N(CCCN(C)C)C3c3ccncc3)oc12 (stereo not drawn) returned miR-21 FLuc -3% and GLA inh pH 4.5 2.
COc1ccc(OCCC(=O)OCC(=O)c2ccc[nH]2)cc1 was read as Rango complex inh 1.2%, miR-21 FLuc -2%, Rango dissoc inh -15% and GLA inh pH 4.5 10.
`CCc1c(C(=O)N/N=C/c2ccco2)nnn1-c1nonc1N` gave Rango complex inh inconclusive, miR-21 FLuc -6% and Rango dissoc inh -1%.
CCc1[nH]nc(C(=O)NC2CCCc3c2cnn3-c2cc(C)cc(C)c2)c1C (stereo not drawn) was read as Rango complex inh -0.1%, miR-21 FLuc -14% and Rango dissoc inh 12%.
CCN(CC)S(=O)(=O)c1cc(NC(=O)C(C)Nc2ccccc2N2CCOCC2)ccc1C (stereo not drawn) was read as Rango complex inh 0.6%, miR-21 FLuc 19%, Rango dissoc inh 1% and GLA inh pH 4.5 -3.
`COc1ccc(C(C)(C)C)cc1NC(=O)C1=CC=CN2CCS(=O)(=O)N=C12` gave Rango complex inh -1.1% and Rango dissoc inh inconclusive.
`Cc1nnsc1C(=O)NNS(=O)(=O)c1ccccc1` gave Rango complex inh 6.2%, miR-21 FLuc -1%, Rango dissoc inh 2% and GLA inh pH 4.5 13.
Screening O=C(CSCc1ccc(Br)cc1)N1CCOCC1 returned Rango complex inh 3.2%, miR-21 FLuc -27%, Rango dissoc inh -18% and GLA inh pH 4.5 -17.
Screening COC(=O)Cc1c(C)c2ccc(OCC(=O)NC3CCS(=O)(=O)C3)cc2oc1=O (stereo not drawn) returned Rango complex inh 2.8%, miR-21 FLuc 1% and Rango dissoc inh -3%.
Screening COc1ccccc1NC(=O)c1ccccc1S(=O)(=O)c1ccccc1[N+](=O)[O-] returned Rango complex inh -0.9%, miR-21 FLuc -4%, Rango dissoc inh 9% and GLA inh pH 4.5 inconclusive.
For COc1ccc2cc(C(=O)C3CCCN(C(=O)Cc4c(C)noc4C)C3)ccc2c1 (stereo not drawn) the results were Rango complex inh 0.3%, miR-21 FLuc -4%, Rango dissoc inh 14% and GLA inh pH 4.5 -3.
For Cc1cccc(NC(=O)C(Cc2ccccc2)c2nn[nH]n2)c1C (stereo not drawn) the results were Rango complex inh 4.8%, miR-21 FLuc -2% and Rango dissoc inh 12%.
For CCc1ccc(N2CN(Cc3cccnc3)CNC2=S)cc1 the results were Rango complex inh -2.3%, miR-21 FLuc 3%, Rango dissoc inh 0% and GLA inh pH 4.5 -1.
Screening CN(C(=O)COC(=O)c1ccc2ccccc2n1)C1CCS(=O)(=O)C1 (stereo not drawn) returned Rango complex inh 0.6%, miR-21 FLuc 2%, Rango dissoc inh -4% and GLA inh pH 4.5 5.
COCCCN1C(=O)C(=O)/C(=C(/O)c2ccccc2)C1c1ccc(N(C)C)cc1 (stereo not drawn) was read as Rango complex inh inconclusive, miR-21 FLuc -2%, Rango dissoc inh 16% and GLA inh pH 4.5 -2.
`Cn1c(=O)c2c(nc(Oc3ccc(-c4ccccc4)cc3)n2C)n(C)c1=O` gave Rango complex inh 0.2%, miR-21 FLuc -1%, Rango dissoc inh -6% and GLA inh pH 4.5 -4.
`COc1ccc(CN(C)CC2CCCN(CCc3ccc(F)cc3)C2)c(OC)c1OC` (stereo not drawn) gave Rango complex inh -1.6%, miR-21 FLuc -6% and Rango dissoc inh -4%.
`O=C(Nc1cccn2ncnc12)c1ccccc1` gave Rango complex inh -0.8%, miR-21 FLuc -19%, Rango dissoc inh -18% and GLA inh pH 4.5 -3.
`CCOC(=O)c1cnc2c(C)cccc2c1NCCCN1CCOCC1` gave Rango complex inh -2.5%, miR-21 FLuc 15% and Rango dissoc inh 1%.
Screening O=C1CN(C(=O)COC(=O)c2ccc(Br)o2)c2ccccc2N1 returned Rango complex inh 0.2% and Rango dissoc inh 23%.
For O=C(Nc1cccc(F)c1)C1CCCN(C(=O)c2ccc(Cl)cc2)C1 (stereo not drawn) the results were Rango complex inh -0.1% and Rango dissoc inh 1%.

Reprinted from the entries so far (4 entries):
For COc1ccc2cc(C(=O)C3CCCN(C(=O)Cc4c(C)noc4C)C3)ccc2c1 (stereo not drawn) the results were Rango complex inh 0.3%, miR-21 FLuc -4%, Rango dissoc inh 14% and GLA inh pH 4.5 -3.
For Cc1cccc(NC(=O)C(Cc2ccccc2)c2nn[nH]n2)c1C (stereo not drawn) the results were Rango complex inh 4.8%, miR-21 FLuc -2% and Rango dissoc inh 12%.
For CCc1ccc(N2CN(Cc3cccnc3)CNC2=S)cc1 the results were Rango complex inh -2.3%, miR-21 FLuc 3%, Rango dissoc inh 0% and GLA inh pH 4.5 -1.
Screening CN(C(=O)COC(=O)c1ccc2ccccc2n1)C1CCS(=O)(=O)C1 (stereo not drawn) returned Rango complex inh 0.6%, miR-21 FLuc 2%, Rango dissoc inh -4% and GLA inh pH 4.5 5.

An excerpt; rates above refer to the full screens.
